Screening data as filed in PubChem BioAssay.
Measles inh = inhibitors of measles virus growth in infected cells | AID 745 | infected Vero cells, GFP fluorescence, 64 h; stronger effect = lower value | z-score (test concentration not listed) | actives 0.1% (n = 33,000);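 active = z-score under -3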;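 note: score is relative to mean and SD of the compound wells of a plate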
* = called active by the depositor. An excerpt. The share of hits here may be higher or lower than overall.

SMILES	Measles inh
Nc1c(O)c2ccccc2oc1=O	-0.39
CC(C)=C1C2C=CC1C1C(=O)N(c3ccc(Cl)c(C(=O)O)c3)C(=O)C21 (stereo unspecified)	-0.09
CC(C)(C)C(=O)N1N=C(c2cccc(NS(C)(=O)=O)c2)CC1c1cccs1 (stereo unspecified)	-0.26
CCOC(=O)c1ccc(N2C(=O)c3ccccc3NC2c2ccc3c(c2)OCO3)cc1 (stereo unspecified)	0.24
O=C(c1ccc([N+](=O)[O-])cc1)c1ccc2c(c1)C(=O)N(c1cccnc1)C2=O	1.27
CCn1c(N)nc2ccccc21	0.72
CC1CCN(C2CC(=O)N(c3cccc(Br)c3)C2=O)CC1 (stereo unspecified)	0.72
CCOC(=O)c1sc2ncn(CC(=O)Nc3cc(Cl)ccc3OC)c(=O)c2c1C	1.31
CCOc1ccccc1NC(=O)C1=C(C)NC(=O)NC1c1ccc(Cl)cc1 (stereo unspecified)	1.3
COc1ccc(-c2cc(C(=O)N3CCCc4ccccc43)no2)cc1	0.16
Cn1c2ccccc2c2c(C(=O)NCC3COc4ccccc4O3)cn(C3CCCC3)c(=O)c21 (stereo unspecified)	-0.94
Cc1ccc(C2Nc3ccccc3-c3nnc(SCc4ccccc4)nc3O2)s1 (stereo unspecified)	0.25
COc1cccc(Cc2nc3cc([N+](=O)[O-])ccc3[nH]c2=O)c1	0.11
Cc1cc(OCC(=O)Nc2sc3c(c2C#N)CCC3)ccc1[N+](=O)[O-]	-0.09
CCOC(=O)C1=C(C)NC(=O)NC1C1CC=CCC1 (stereo unspecified)	0.32
Cc1ccc(-c2nn(CCC(=O)N3CCN(C)CC3)c(=O)c3ccccc23)cc1	1.6
Cc1ccc(N2CN(Cc3ccco3)CNC2=S)cc1	-0.42
COc1ccc(NC(=O)Cn2cnc3sc4c(c3c2=O)CCC4)cc1Cl	-0.1
C=CCNC(=O)c1ccc2c(c1)C1C3CCC(C3)C1C(c1ccccc1)N2 (stereo unspecified)	-0.69
CCOc1cc(C2C(C(=O)OC)=C(C)NC3=C2C(=O)c2ccccc23)cc(Br)c1OCC (stereo unspecified)	-2.77
COC(=O)c1sc(N2C(=O)C(=O)/C(=C(/O)c3ccc(Cl)cc3)C2c2ccc(C(C)(C)C)cc2)nc1C (stereo unspecified)	-1.07
CCCCN(CC)c1ncnc2sc(C)cc12	-0.64
CCOC(=O)c1ccc(Nc2c([N+](=O)[O-])ccc3nonc23)cc1	-0.6
CCOC(=O)c1c(-c2ccc(C)cc2)csc1NC(=O)CSc1ncnc2sc3c(c12)CCC3	1.2
CN1c2ccccc2-c2nc3ccccc3n2C1c1ccccc1 (stereo unspecified)	1.56

Three compounds already listed, ordered by the number in Measles inh, high to low:
SMILES	Measles inh
CCOC(=O)c1sc2ncn(CC(=O)Nc3cc(Cl)ccc3OC)c(=O)c2c1C	1.31
Cc1cc(OCC(=O)Nc2sc3c(c2C#N)CCC3)ccc1[N+](=O)[O-]	-0.09
CCOc1cc(C2C(C(=O)OC)=C(C)NC3=C2C(=O)c2ccccc23)cc(Br)c1OCC (stereo unspecified)	-2.77

Entries shown so far with a tert-butyl group:
SMILES	Measles inh
CC(C)(C)C(=O)N1N=C(c2cccc(NS(C)(=O)=O)c2)CC1c1cccs1 (stereo unspecified)	-0.26
COC(=O)c1sc(N2C(=O)C(=O)/C(=C(/O)c3ccc(Cl)cc3)C2c2ccc(C(C)(C)C)cc2)nc1C (stereo unspecified)	-1.07

The list continues.
SMILES	Measles inh
O=C(CC1(O)C(=O)N(Cc2ccccc2)c2ccccc21)c1ccc2c3c(cccc13)CC2 (stereo unspecified)	-0.69
CCCCOc1cccc(NC(=O)c2ccc(Cl)c([N+](=O)[O-])c2)c1	-1.62
COc1ccccc1NC(=O)C1=C(C)NC2=C(C(=O)CC(c3ccc(OC)c(OC)c3)C2)C1c1cccs1 (stereo unspecified)	-1.06
N#CCCN(CCC#N)S(=O)(=O)c1ccc2ccccc2c1	0.39
Cc1ccc(CN(Cc2ccccn2)C(=O)Nc2ccc(C)c(C)c2)cc1	0.76
O=C(Nc1cccc2c1C(=O)c1ccccc1C2=O)c1cccc(F)c1	0.97
COC(=O)c1sc2ccccc2c1NC(=O)c1ccc(S(=O)(=O)N2CC(C)OC(C)C2)cc1 (stereo unspecified)	-0.46
Cc1ccc(N2Cc3ccccc3C2=O)cc1	0.19
CCc1ccc(-n2c(N)c(C(=O)Nc3ccccc3OC)sc2=S)cc1	-0.07
COC(=O)c1ccc2c(=O)n(C3CCCC(C)C3C)c(=S)[nH]c2c1 (stereo unspecified)	1.23
O=C(CCS(=O)(=O)c1ccc(Br)s1)Nc1ccc(F)cc1	0.42
COC(=O)c1ccc2c(c1)C(=O)N(c1ccc(C(=O)OCC(C)C)cc1)C2=O	1.05
CCc1cccc(NS(=O)(=O)c2cc(Br)cc3c2N(C(C)=O)C(C)C3)c1 (stereo unspecified)	-0.52
O=C(Nc1nccs1)c1cccc(S(=O)(=O)N2CCOCC2)c1	-0.35
Cc1ccc2c(c1)C(c1ccc(F)cc1)N(C(=O)c1ccco1)CC(=O)N2 (stereo unspecified)	-0.44
Cc1ccc(-c2csc(NC(=O)Nc3ccccc3)n2)cc1	-0.24
CCOC(=O)c1cnc2c(OC)cccc2c1NCc1ccco1	0.39
CCOC(=O)c1[nH]c2c(c1C)C(=O)CC(c1cccs1)C2 (stereo unspecified)	1.42
COc1cc2[nH]c(=O)n(CCC(=O)NCc3ccc4c(c3)OCO4)c(=O)c2cc1OC	0.2
COc1ccc(S(=O)(=O)NCc2ccc(C(=O)NC3CCCCC3C)cc2)cc1 (stereo unspecified)	-0.46
COC(=O)C1=C(C)NC2=C(C(=O)CC(c3ccc(Cl)cc3)C2)C1c1ccc(OC)cc1OC (stereo unspecified)	-0.06
Nc1ncnc(Nc2ccc(F)cc2)c1[N+](=O)[O-]	-0.14
Cc1ccc(C)c(NC(=O)CSc2nc3c(c(=O)n2C)SC(C)C3)c1 (stereo unspecified)	-0.77
O=[N+]([O-])c1ccccc1Nc1nc(OCC(F)(F)F)nc(OCC(F)(F)F)n1	-0.05
CCC(=S)C=C1Sc2ccc(OC)cc2N1CC	-0.13
More compounds
SMILES	Measles inh
CC(C)NC(=O)CN1C(=O)CSc2ccc(S(=O)(=O)N3CCOCC3)cc21	1.26
Cc1cc(N2C(=O)c3ccc([N+](=O)[O-])cc3C2=O)no1	1.1
CCSCCOC(=O)C1=C(C)NC2=C(C(=O)CC(C)(C)C2)C1c1ccc(OC)c(O)c1 (stereo unspecified)	1.81
CCC(C)NC(=O)c1c[nH]c2ccc(S(=O)(=O)N(C)c3ccc(Cl)cc3)cc2c1=O (stereo unspecified)	-2.21
CCN(Cc1ccccc1)C(=O)Cc1c(C(=O)O)[nH]c2ccccc12	0.24
Cc1cc(C)c(C(=O)Nc2sc3c(c2C#N)CCCC3)c(C)c1	-2.34
Cc1ccc(-c2[nH]c3ccccc3c2C)cc1[N+](=O)[O-]	-1.25
O=C(NCCC1=CCCCC1)c1cc(S(=O)(=O)N2CCOCC2)ccc1Sc1ccc(F)cc1	1.85
O=C(Nc1nc(-c2ccc(I)cc2)cs1)c1ccc(F)cc1	-0.07
O=c1oc2c3c4c(cc2c(C(F)(F)F)c1CCBr)CCCN4CCC3	0
O=C1C2C3CCC(C3)C2C(=O)N1c1ccc(O)cc1 (stereo unspecified)	-0.52
CC(C)(C)C(=O)CSc1nc2ccccc2c(=O)n1CCCN1CCN(c2cccc(Cl)c2)CC1	2.05
O=C(CSc1ccccn1)Nc1cc(C(=O)O)cc(C(=O)O)c1	-0.25
c1coc(-c2c3c(nc4ccc5ccccc5c24)CCC3)c1	-0.94
O=C(COc1ccc(Cl)cc1)N1CCCCCC1	1.24
O=C(O)CCC1(C(=O)O)OCCc2ccccc21 (stereo unspecified)	-0.64
O=C(NCc1ccccc1)c1cc(Sc2ccc(F)cc2)nc2ccccc12	0.27
Brc1c(CSc2nc3ccccc3o2)nc2ccccn12	-1.18
COc1ccc(N2C(=O)CN(Cc3cc(OC)c(OC)c(OC)c3)C2=S)cc1	0.29
CCOC(=O)c1cnc2c(C)cc(Cl)cc2c1Nc1ccc(Cl)cc1	-0.15
CC(=O)Oc1ccc(C2Nc3ccc(C(=O)O)cc3C3C=CCC32)c(OC(C)=O)c1 (stereo unspecified)	0.95
O=C(CCS(=O)(=O)c1cccc2nonc12)Nc1ccc(Br)cc1	-0.55
O=C1CCC(=O)N1c1ccc(NCc2ccccc2Sc2ccccc2CO)c([N+](=O)[O-])c1	-0.91
NC(=O)c1c(NC(=O)C2CCCCC2)sc2c1CCCC2	-0.54
O=C(NC1CCCC1)c1ccc(CSCc2ccccc2Cl)o1	0.44

An excerpt from above in order of molar mass, lowest first:
SMILES	Measles inh
O=C(O)CCC1(C(=O)O)OCCc2ccccc21 (stereo unspecified)	-0.64
O=c1oc2c3c4c(cc2c(C(F)(F)F)c1CCBr)CCCN4CCC3	0
O=C(Nc1nc(-c2ccc(I)cc2)cs1)c1ccc(F)cc1	-0.07

Additional records follow.
SMILES	Measles inh
O=C(Cn1nc(-c2ccc(Cl)cc2)c2ccccc2c1=O)Nc1cccc2ccccc12	0.65
COc1ccc(CC(=O)Nc2ccc(-c3noc(-c4cccc(OC)c4)n3)cc2)cc1	-1.2
Cc1cc(N2CCN(C)CC2)nc2ccc(NC(=O)Cc3cccc(C(F)(F)F)c3)cc12	-3.15*
C1=CC2CC1CC2CN1CCN(Cc2ccccn2)CC1 (stereo unspecified)	1.25
CC1=NN(C(=O)Cc2ccccc2)C(C)(C)C1	-0.49
C=CCSc1nnc2c(n1)OC(c1ccncc1)Nc1ccc(Br)cc1-2 (stereo unspecified)	0.88
CCn1cc(C(=O)N2CCCCC2)c2cc(OC)c(OC)cc2c1=O	1.31
O=C1c2ccccc2C(=O)c2c1ccc1c(=O)n(-c3ccccc3Cl)[nH]c21	-1.7
Cc1cccc(C)c1Nc1c(-c2ccco2)nc2ccc(Br)cn12	0.48
COc1ccc2sc(C(=O)O)c(Br)c2c1	-0.48
O=C(Nc1cnn(Cc2ccc(F)cc2)c1)c1cnccn1	0.14
O=C(NC1CCCCC1)c1cccn2c(=O)c3ccc(Cl)cc3nc12	-0.87
COc1cc(NC(=O)c2cc3nc(-c4ccc(OC)c(OC)c4)cc(C(F)(F)F)n3n2)cc([N+](=O)[O-])c1	0.01
CN(CCCn1c(=S)[nH]c2c(sc3ccccc32)c1=O)Cc1ccccc1	0
O=C(CCn1c(SCc2ccccc2F)nc2ccccc2c1=O)N1CCCCC1	0.44
CCCOc1ccc(C2NC(=O)NC(C)=C2C(=O)OCc2ccc3c(c2)OCO3)cc1OC (stereo unspecified)	-0.24
Cc1ccc(-n2nc(C(=O)Nc3cccc([N+](=O)[O-])c3C)c3c4ccccc4n(C)c3c2=O)cc1	-0.56
CCCCNC(=O)c1cnn2c(C)c(Cc3ccc(Cl)cc3)c(C)nc12	-0.27
O=C(Nc1ccc(Cl)c([N+](=O)[O-])c1)C1c2ccccc2Oc2ccccc21	1.73
O=C(c1ccncc1)N1N=C(c2ccncc2)CC1(O)C(F)(F)F (stereo unspecified)	-0.98
O=C(Nc1ccc2c(c1)C(=O)N(c1cccc(O)c1)C2=O)c1ccc(Br)cc1	0.41
O=C(NCCC1=CCCCC1)c1ccc2c(c1)N(Cc1ccccc1)C(=O)CS2	0.06
O=C(O)CCC(=O)Nc1nc2n(n1)C(c1ccccc1)C=C(c1ccccc1)N2 (stereo unspecified)	0.66
COc1ccc(NC(=O)C2c3cc(OC)c(OC)cc3C(=O)N(C)C2c2ccccc2F)cc1OC (stereo unspecified)	-0.74
COc1cccc(C2SCC(=O)N2c2cccc(C)c2)c1OC (stereo unspecified)	-0.44
Next results.
SMILES	Measles inh
CC1CC(C)CN(S(=O)(=O)N2CCCC(C(=O)NC3CC3)C2)C1 (stereo unspecified)	-0.04
CCOC(=O)c1cc(CC)sc1NC(=O)c1ccc(N2CCOCC2)c([N+](=O)[O-])c1	0.17
Cc1ccc(S(=O)(=O)N=C(CN2CCCCC2)N2CCN(S(=O)(=O)c3ccc(C)cc3)C2c2ccccc2)cc1 (stereo unspecified)	0.76
Cc1cccc(C(=O)OCCN2CCCCC2)c1	0.13
O=C(CSc1oc(-c2cccs2)nc1S(=O)(=O)c1ccc(F)cc1)NCC1CCCO1 (stereo unspecified)	-1.03
N#CCc1ccc(NC(=O)c2ccccc2[N+](=O)[O-])cc1	1.19
Nc1nc2ccc(C(=O)N3CCCCC3)cc2s1	0.76
FC(F)(F)c1nc2ccccc2nc1N1CCN(c2ccccc2)CC1	-0.17
O=C(Cn1c(=O)[nH]c2ccsc2c1=O)NC1CCCCCCC1	0.2
O=C(CCN1CCCC1)NCC1COc2ccccc2O1 (stereo unspecified)	-1.18
CCc1nnc(NC(=O)c2cc3ccccc3o2)s1	0.59
CCC(=O)N1c2ccccc2NC2=C(C(=O)CC(c3cccs3)C2)C1c1ccc(C(F)(F)F)cc1 (stereo unspecified)	-0.46
CCC(NC(=O)Nc1ccccc1C(=O)OC)(C(F)(F)F)C(F)(F)F	-0.06
COc1ccccc1C(NC(=O)Cc1ccccc1)c1ccc2cccnc2c1O (stereo unspecified)	-0.11
COC(=O)C1=CN(Cc2ccc(F)cc2)C=C(C(=O)OC)C1c1ccccc1Br	-0.04
CC=CCOC(=O)C1=C(C)NC(=O)NC1c1ccc(O)c(OC)c1 (stereo unspecified)	0.18
CC(=O)Nc1ccc(N2C(=O)CSC2c2cccc(C(F)(F)F)c2)cc1 (stereo unspecified)	-0.5
COc1cccc(-c2nn(C)c3sc(C(=O)NCC4(c5ccccc5)CCCC4)cc23)c1	-2.54
CCN(CC)C(=O)c1cc2c(=O)[nH]c3ccccc3c2n1C	-0.04

Copied from the list.
Cc1ccc(S(=O)(=O)N=C(CN2CCCCC2)N2CCN(S(=O)(=O)c3ccc(C)cc3)C2c2ccccc2)cc1 (stereo unspecified) | Measles inh: 0.76
COc1ccccc1C(NC(=O)Cc1ccccc1)c1ccc2cccnc2c1O (stereo unspecified) | Measles inh: -0.11
CCc1nnc(NC(=O)c2cc3ccccc3o2)s1 | Measles inh: 0.59
COc1cccc(-c2nn(C)c3sc(C(=O)NCC4(c5ccccc5)CCCC4)cc23)c1 | Measles inh: -2.54
COC(=O)C1=CN(Cc2ccc(F)cc2)C=C(C(=O)OC)C1c1ccccc1Br | Measles inh: -0.04
